MenB inh – Mtb MenB enzyme inhibition. MenB enzyme assay, absorbance read-out; some hits fall short of the stated cut. inhibition, %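 (about 12 µg/mL by stock and volumes)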. hit rate 0.43% among 100,000. AID 540299;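 active = mean of two replicates above 30%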;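 also: 0% = no compound and 100% = wells with inactive enzyme; the first replicate is given; strong numbers were not always called active; inactives centre near -10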
Target sequence (P9WNP5 whole entry, looked up): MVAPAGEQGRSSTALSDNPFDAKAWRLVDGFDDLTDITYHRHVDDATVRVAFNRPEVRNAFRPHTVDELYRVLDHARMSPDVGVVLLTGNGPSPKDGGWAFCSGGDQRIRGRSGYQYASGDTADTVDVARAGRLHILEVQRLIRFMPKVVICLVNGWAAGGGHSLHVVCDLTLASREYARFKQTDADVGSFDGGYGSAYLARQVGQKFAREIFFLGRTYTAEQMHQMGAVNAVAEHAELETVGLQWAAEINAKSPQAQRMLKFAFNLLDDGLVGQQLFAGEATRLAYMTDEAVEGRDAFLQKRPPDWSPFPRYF
MbtI inh – blocks the Mycobacterium tuberculosis siderophore enzyme MbtI | inhibition, %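 (about 17 µg/mL by stock and volumes)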 | purified MbtI enzyme, fluorescence intensity read-out | hit rate 0.89% among 100,000 | P9WFX0 | AID 493033;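 active = above 50% in both replicates, above 80% if mildly self-fluorescent; inactive = the rest, strongly fluorescent compounds included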;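 also: 0% = mean of negative and 100% = mean of positive controls; one replicate is shown; some compounds called inactive have numbers as strong as hits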
Polio RdRp inh – poliovirus RNA polymerase inhibition. hit rate 0.66% among 150,000. poliovirus polymerase elongation, fluorescence polarization; stronger effect = lower value. P03300. % elongation, % (compound at 16.7 µg/mL); in the data active = % elongation below about 90%; also: some results filed as inactive read as strong as hits
Target sequence (P03300 1749-2209 limits assumed): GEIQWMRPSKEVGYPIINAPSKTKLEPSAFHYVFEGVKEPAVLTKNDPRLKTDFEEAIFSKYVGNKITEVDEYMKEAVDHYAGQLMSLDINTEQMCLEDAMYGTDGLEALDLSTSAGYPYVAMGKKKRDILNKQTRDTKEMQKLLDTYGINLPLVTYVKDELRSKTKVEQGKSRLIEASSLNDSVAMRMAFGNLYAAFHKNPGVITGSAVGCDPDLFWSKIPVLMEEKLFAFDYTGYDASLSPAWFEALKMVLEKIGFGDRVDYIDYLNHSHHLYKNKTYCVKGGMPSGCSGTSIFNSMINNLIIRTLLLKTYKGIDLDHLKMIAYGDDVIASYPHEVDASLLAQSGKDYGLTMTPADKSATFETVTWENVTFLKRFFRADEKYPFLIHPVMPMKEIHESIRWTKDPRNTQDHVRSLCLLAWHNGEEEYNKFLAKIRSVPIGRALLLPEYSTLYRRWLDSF
Polio RdRp inh intensity – second read-out of Polio RdRp inh, no call of its own (marks repeat the call); % elongation; measured here: total intensity read-out; formula for this scale not given here;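 total fluorescence in place of polarization; lower means less elongation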
Numbers without * were called inactive; i = inactive; / = not tested or not shown; & = joins results of further samples.

Molecule	MbtI inh	Polio RdRp inh	MenB inh	Polio RdRp inh intensity
Cc1cc(=O)[nH]c2c1c(C)nn2-c1ccccc1	17	101	/	103
CCOc1ccc(NC(=O)CSc2nnc3ccccn23)cc1	15	104	5	108
O=C(CN1CCC(N2CCCCC2)CC1)NC(c1ccccc1)c1ccccc1	-7	100	-34	101
CCOC(=O)C1=C(N)Oc2cc(C)n(C)c(=O)c2C1c1ccncc1 (stereo not given)	-3	99	6	106
CN(CC(=O)NC1CC(C)(C)NC(C)(C)C1)S(=O)(=O)c1ccc(Br)cc1	-15	99	-15	101
COc1cccc(CNC(=O)CCCOc2cc(=O)n(C)c3ccccc23)c1	6	102	-10	104
O=C(Cn1cnc(S(=O)(=O)N2CCc3ccccc32)c1)NCc1ccccc1	2	101	12	103
CN1CCc2nc(SCC(=O)Nc3ccccc3OC(F)(F)F)c(C#N)cc2C1	14	103	-19	108
C=CCNC(=S)NC1C2CN3CCN(C2)CC1(C)C3 (stereo not given)	-4	98	-34	103
Cc1c(C(=O)N2CCN(C3CCS(=O)(=O)C3)CC2)oc2ccc(Cl)cc12 (stereo not given)	0	102	3	108
C/C(=N\NS(C)(=O)=O)c1ccc(C)cc1	1	101	-26	100
CCn1c(C)cc(O)c(C(c2ccc(OC)cc2)N2CCN(C)CC2)c1=O (stereo not given)	43	101	-3	102
O=c1c(-c2ccc(OC3O[C@H](CO)[C@@H](O)[C@H](O)[C@H]3O)cc2)coc2cc(O)cc(O)c12 (stereo not given in full)	-6	111	6	118
O=c1cc(CSc2ccccc2)nc2sccn12	11	100	-4	100
Cc1ccc(S(=O)(=O)c2cc3cc(C(=O)Nc4ccc(C)c(C)c4)ccc3oc2=O)cc1	4	105	5	99
O=C(CSc1nc2c(sc(=S)n2Cc2ccco2)c(=O)n1-c1ccccc1)c1ccc(O)c(O)c1	-1	102	-18	102
Cc1nc(Cc2nnc(SCC(=O)c3ccc4c(c3)CCCN4S(C)(=O)=O)o2)cs1	1	104	-24	111
Nc1nsc2ccccc12	106	100	-32	104
COc1ccccc1Nc1nc(NCC2CCCO2)c2ccccc2n1 (stereo not given)	89	101	28	100
N#Cc1ccc(OCC(=O)N/N=C/C2CC=CCC2)cc1 (stereo not given)	2	105	12	104
O=C(Cn1nnc(-c2ccccc2)n1)c1ccc(S(=O)(=O)N2CCCCC2)cc1	-8	116	-29	119
COc1cc2c(cc1OC)CN(C(=O)CCOc1ccccc1OC)CC2	-11	105	-13	98
Cc1ccc(C(=O)CSc2nnnn2C2CCCC2)cc1C	0	103	-30	101
Cc1csc(SCC(=O)c2cc(C)n(-c3ccccc3)c2C)n1	-11	105	-20	105
COc1cccc(NC(=O)N2CCC(N(C)Cc3cccc(Cl)c3)CC2)c1	3	103	-27	98
FC(F)(F)c1cc(C(F)(F)F)c(Br)c(-n2cccc2)c1Br	-1	96	-5	99
O=C(CN(c1ccccn1)S(=O)(=O)c1ccccc1)N=Nc1c(O)[nH]c2ccccc12	6	101	-60	101
Cn1c(C(=O)NCCc2ccccc2)cc(=O)n(C)c1=O	-3	103	-16	102
C=CCOC(=O)C1=C(C)N2CCSC2=C(C#N)C1c1ccco1 (stereo not given)	-23	101	-2	106
CC(C)Cn1c(=O)n(C)c(=O)c2cc(C(=O)c3cc(Cl)cc(Cl)c3O)cnc21	-1	105	-2	110
O=C(CSCc1ccccc1F)NCc1ccccc1	2	104	8	105
O=C(Cc1ncc(-c2ccccc2)cn1)c1ccccc1	1	98	-64	101
O=C(C1c2ccccc2C(=O)N2CCc3ccccc3C12)N1CCN(c2ccccc2)CC1 (stereo not given)	-14	101	-5	104
Cc1cc(C(=O)CSc2nnc(CN3CCCC3)o2)c(C)n1-c1ccccc1	13	97	-13	100
Cc1ccnc(NS(=O)(=O)c2ccc(N)cc2)n1	-14&-10	100&101	0&11	100&97
O=C(CN1C(=O)S/C(=C\C=C\c2ccccc2)C1=O)N1CCOCC1	-19	103	-25	111
C=CCNS(=O)(=O)c1cc2c3c(c1)CCN3C(=O)CC2	4	104	-9	98
CCCN1C2=NCCCN2c2ccccc21	-7	101	-5	100
O=C(O)c1cccc(S(=O)(=O)NC2CC2)c1	-1	97	0	101
COCCn1c(-c2ccccc2)n[nH]c1=S	63	95	14	116
CCOC(=O)/C(C#N)=C/NC1CCN(Cc2ccccc2)CC1	-2	97	2	96
CCc1cc(Cl)n2c(nc3ccccc32)c1C#N	74	106	-8	107
Nc1nc(N)c2nccnc2n1	i	102	-29	103
CN(CC(=O)Nc1ccc(N2CCOCC2)cc1)CC(=O)Nc1cccc(Br)c1	-14	105	-2	103
C=Cn1cccc1C(=O)O	-1	102	-10	102
Clc1ccc(CNC2CN3CCC2CC3)cc1 (stereo not given)	1	100	-7	96
CN1CCC(N(C)C(=O)c2ccccc2Nc2ccc(SC(F)F)cc2)CC1	5	104	-9	96
O=C(COC(=O)C12CC3CC(CC(C3)C1)C2)NCc1ccco1	-6	104	/	108
COc1ccc2ncc3c(c2c1)-c1cc(Cl)ccc1OC3	48	104	8	112
Cc1ccc2nc(SCC3CCCCO3)[nH]c2c1 (stereo not given)	-6	99	-99	93

Next section:
Molecule	MbtI inh	Polio RdRp inh	MenB inh	Polio RdRp inh intensity
O=C(O)CCN(Cc1ccccc1)S(=O)(=O)c1ccccc1Cl	34	101	-7	93
C=CCn1c(=O)c2c(C)c(C)sc2n2c(Nc3ccccc3)nnc12	10	104	-5	110
CC(=O)Oc1cccc(NC(=O)CC2SC(N)=NC2=O)c1 (stereo not given)	-2	100	12	102
O=c1[nH]ncc(NCCc2ccccc2)c1Cl	10	100	7	101
O=C(NCc1cccs1)c1csc(Cc2c(Cl)cccc2Cl)n1	-7	106	-11	109
Cc1noc(C)c1COC(=O)Cc1ccc(Cl)cc1	1	102	-8	108
O=C(CN1CCC(C(=O)Nc2ccccc2)CC1)NCc1ccc(CN2CCOCC2)cc1	-6	101	-37	107
C/C(=N/O)C1C(=O)c2ccccc2C1=O	/	93	-17	88
O=C(COC(=O)c1cc(F)c(F)cc1Cl)NC1CC1	-7	102	/	108
O=C(O)CCN1CCSC1=O	-10	105	-17	101
COC(=O)c1ccc(N(C=O)C(=S)SC)cc1	8	101	10	99
Cc1ccc(CCNS(=O)(=O)c2c(C)nc3sccn3c2=O)cc1	0	106	-19	102
O=C(COC(=O)/C=C/c1ccco1)Nc1cc(-c2ccccc2)nn1-c1ccccc1	5	98	-12	100
O=C(COC(=O)Cc1cn2ccsc2n1)Nc1ccc(Br)cc1	-2	107	-17	116
CC(=O)N(C)Cc1nc2ccccc2n1C	-5	100	4	101
Cc1ccc(C(=O)OCC(=O)Nc2ccc(Cl)c(Cl)c2)s1	-2	109	/	112
CC(C)NC(=O)COc1ccc(S(=O)(=O)N2CCCC2)cc1	-10	104	-16	100
Cc1cc2nc(-c3ccc(SCC#N)nc3)[nH]c2cc1C	91	102	-37	104
COCCn1c(Sc2ncnc3sccc23)nc2ccccc21	4	106	15	109
O=c1ccc(C(F)(F)F)cn1Cc1cc2c(cc1Br)OCO2	-5	105	2	109
Nc1c2c(nc3ccccc13)CCCC2	63	101	2	99
O=C(COC(=O)C1CCN(S(=O)(=O)c2ccc3c(c2)OCCO3)CC1)c1c[nH]c2ccccc12	12	99	-28	102
CCCCSc1nnc(-c2ccc3[nH]c(C)c(C)c3c2)o1	7	103	-20	102
O=C1CSC2(C(=O)Nc3ccccc32)N1c1ccccc1 (stereo not given)	10	102	7	98
COc1ccccc1C(=O)Nc1ccc(-c2nc3ccccc3o2)cc1	-345	102	-104	102
Nc1cccc(Nc2ncnc3ccccc23)c1	2	103	-11	109
COCCn1c(O)c(/C=N/c2c(C#N)c(C)c(C)n2C2CCCCC2)c(=O)[nH]c1=S	18	42	-51	244
O=C(O)c1ccc2c(c1)N(Cc1ccc(F)cc1)C(=O)/C(=C\c1ccccc1)S2	9	106	-20	104
Cc1ccccc1NC(=O)N1CCC(C(N)=O)CC1	-9	101	-15	102
CC(=O)n1c(=O)oc2cc(Cl)ccc21	12	102	-25	104
CC(=O)NCC(c1ccco1)N1CCN(c2ccccc2)CC1 (stereo not given)	3	100	13	101
O=C(O)CC1(CC(=O)Nc2cccnc2)CCCC1	4	100	-7	101
N#CCNC(=O)c1ccc(Br)cc1	/	108	-11	114
COc1ccc(CNC2C3CC4CC(C3)CC2C4)c(OC)c1C (stereo not given)	-10	99	2	100
CC(=O)Oc1ccc(C)cc1NC(=O)CC1SC(=Nc2ccc(F)cc2)N(C)C1=O (stereo not given)	-10	100	-17	102
CCc1ccccc1NC(=O)Cn1cc2c(n1)CCCC2	-8	103	-14	103
Cc1cc(C)c(NC(=O)CCNC2CCCCC2)c(C)c1	/	98	4	94
CCCn1c(=O)c2ccccc2n2c(SCC(=O)NC(C)(C)C)nnc12	2	102	1	106
Nn1cc(-c2ccccc2)nn1	-16	100	/	98
COc1ccc(CNc2nccs2)cc1OC	4	101	29*	100
CC(=O)Nc1ccc2c(COC(=O)c3ccc(S(=O)(=O)N(C)C)cc3)cc(=O)oc2c1	-2	104	11	101
COc1ccc(/C=C2\SC(=O)N(CCNS(=O)(=O)c3ccccc3OC)C2=O)cc1	24	101	-34	102
Cc1nn(CC(=O)Nc2ccccc2F)c(=O)c2cccn12	-18	100	7	105
COc1cc(OC)c(S(=O)(=O)N(C)c2ccccc2)cc1S(=O)(=O)N(C)c1ccccc1	-2	99	-6	103
CCOc1ccc(C(=O)NC(C(=O)NCC2CCCO2)C(C)C)cc1 (stereo not given)	-24	101	3	108
O=C(c1ccccc1)N1CCN(S(=O)(=O)c2ccccc2)CC1	-1	104	-7	103
N#Cc1ccccc1NC(=O)CN1CCN(S(=O)(=O)/C=C/c2ccccc2)CC1	-18	105	-18	108
COc1ccc(Nc2cc(C(=O)NCCCN3CCCC3)c3ccccc3n2)cc1	3	102	-6	98
COC(=O)c1noc(C)c1-c1ccnn1C(=O)c1ccc(Cl)cc1	4	101	-1	102
Cc1cccc(C)c1N1CCN(C(=O)N2CCCCC2)CC1	6	100	-30	102

Going on with the list:
Molecule	MbtI inh	Polio RdRp inh	MenB inh	Polio RdRp inh intensity
N#Cc1ccc(OCCOCCn2cncn2)cc1	-22	101	-3	101
Oc1ccc(CNCC2NCCc3ccccc32)cc1Cl (stereo not given)	/	97	2	86
COc1ccc(Cl)cc1-n1c(C)nc2cc(C(=O)NCC(OC)OC)ccc21	-2	102	-12	103
CCN1C(=O)c2ccccc2S(=O)(=O)c2ccc(C(=O)NCCN3CCCCCC3)cc21	2	98	-11	101
Oc1ccc(-c2csc(-c3ccccc3)n2)cc1O	21	102	-32	99
CC(C)(C)C(=O)NCC(=O)O	1	97	-21	105
O=C1CNC(=S)N1CCc1ccc(O)c(O)c1	10	100	-65	107
c1ccc2c(c1)ncn2CCN1CCOCC1	-8	100	5	103
Cc1cc(-c2cn3nc(-c4ccccc4)c(-c4ccccc4)nc3n2)c(C)n1Cc1ccco1	8	45	-11	237
c1ccc(Nc2cc(-c3ccccc3)[nH]n2)cc1	-15	101	/	98
Cc1c(C#N)c(N)n(Cc2cc(C(F)(F)F)cc(C(F)(F)F)c2)c1C	25	105	15	103
Nn1c2ccccc2n2cc(-c3ccccc3)nc12	-172	102	/	98
COC(=O)C1=C(CN(C)CCc2ccc(OC)c(OC)c2)NC(=O)NC1c1cccc(OC)c1 (stereo not given)	-4	104	-75	102
CC(C)(C)C(=O)/C=C/Nc1ccc(F)cc1	-6	101	-15	98
CC(=O)Oc1ccc(Nc2nc3nonc3nc2Nc2ccccc2)cc1	-4	102	-29	99
CC(Oc1ccccc1)C(=O)O (stereo not given)	0	103	9	105
COc1ccc(/C=N/c2nc3ccccc3n2Cc2ccc(Cl)cc2)cc1OC	6	105	6	96
COc1cc(Cl)c(C)cc1NC(=O)COC(=O)C(C)C	-6	102	/	106
COCCN(Cc1nc2ccccc2c(=O)[nH]1)C(=O)C1=NN(c2cccc(C)c2)C(=O)CC1	2	106	-25	110
CCS(=O)(=O)C1=NN2C(=N)/C(=C\c3ccc(OC)cc3)C(=O)N=C2S1	3	102	-78	97
O=C(Cc1ccc(Cl)cc1)Nc1ccccc1C(=O)N1CCOCC1	1	101	-19	101

One compound at a time, from the list above. Values in the order: MbtI inh | Polio RdRp inh | MenB inh | Polio RdRp inh intensity
`COCCn1c(-c2ccccc2)n[nH]c1=S` in the list: 63 | 95 | 14 | 116
`O=C(Cc1ccc(Cl)cc1)Nc1ccccc1C(=O)N1CCOCC1` in the list: 1 | 101 | -19 | 101
`COc1cccc(CNC(=O)CCCOc2cc(=O)n(C)c3ccccc23)c1` in the list: 6 | 102 | -10 | 104
`Cc1ccc(CCNS(=O)(=O)c2c(C)nc3sccn3c2=O)cc1` in the list: 0 | 106 | -19 | 102
`CC(C)(C)C(=O)/C=C/Nc1ccc(F)cc1` in the list: -6 | 101 | -15 | 98
